StopGo FLuc – lowers the firefly signal of an FMDV 2A StopGo reporter | HEK cells with a luciferase reporter of 2A StopGo recoding | Potency, µM (titrated, usually from 57.5 µM), for inactives: top-dose signal change, negative = less light | 120,000 tested, 0.23% active | AID 1745856; active = well fitted falling curve with a large enough effect; inconclusive = small, poorly fitted or top-dose-only effect; inactive = no such curve, though single readings can be large or run the other way; note: nearly all actives have a fitted effect of over 60% in size; overnight with compound
2A Renilla – FMDV 2A StopGo reporter, Renilla signal; HEK cells with a luciferase reporter of 2A StopGo recoding; Potency, µM (doses to about 57.5 µM), without a hit: top-dose signal change, negative = less light; 120,000 tested, 0.32% active; active means well fitted falling curve with a large enough effect; inconclusive means small, poorly fitted or top-dose-only effect; inactive means no such curve, though single readings can be large or run the other way; note: nearly all actives have a fitted effect of over 55% in size; overnight with compound
* marks the source's active call; other numbers are inactive results; ? = inconclusive; [ ] = dose if it differs, or a comment. % is set by controls: 0 for no effect and ±100 for the full control effect; potency is the fitted concentration of half-maximal effect. An excerpt; count on the stated rates, not on these rows.

Below each SMILES – StopGo FLuc	2A Renilla
[1] Cn1cc(-c2cc3n(n2)CCC(=O)N3CCCC(=O)Nc2ccc(F)cc2F)c2ccccc21
→ 19%	4%
[2] Cc1ccc(-c2cc(C(=O)N3CCCCCC3)c3ccccc3n2)o1
→ 32%[activator]	157%[activator]
[3] Cc1ccc(Cn2c(=O)n(CC3CCC(C(=O)N4CCOCC4)CC3)c(=O)c3sccc32)cc1 (stereo not given)
→ 43%	0%
[4] COc1ccccc1C1=NOC(C(=O)NC(C)(C)C)C1 (stereo not given)
→ 27%	2%
[5] CCN(c1ccccc1)S(=O)(=O)c1ccc(C(=O)NC2CCCCCC2)cc1
→ ?	?
[6] COc1ccc(Nc2cc(C(=O)NCCCN3CCN(c4ccccc4F)CC3)c3ccccc3n2)c(OC)c1
→ ?	?
[7] CCOc1ccc(NC(=O)c2cc(S(=O)(=O)N3CCN(c4ccccc4F)CC3)ccc2F)cc1
→ 4%	2%
[8] CO[C@]12C[C@@H](COC(=O)c3cncc(Br)c3)CN(C)[C@@H]1Cc1cn(C)c3cccc2c13
→ -10%[11.5 µM]	-11%
[9] COc1cccc(N2CCN(C(=O)Cc3ccc(N4CCCC4=O)cc3)CC2)c1
→ 3%	-2%
[10] CC1C(c2ccccc2)=[N+]([O-])C(C)(C)N1O (stereo not given)
→ ?	0%[1.06 µM]
[11] COc1ccccc1CC(C(=O)Nc1ccccc1F)c1nn[nH]n1 (stereo not given)
→ -5%	25%
[12] CC(NC(=S)NC1CCCC1)c1ccc(C(C)(C)C)cc1 (stereo not given)
→ ?	?
[13] O=C(CCCc1c[nH]c2ccccc12)N1CCN(C(=O)c2ccco2)CC1
→ 4%	-1%
[14] Cc1c(Cl)cccc1-c1ccc(C(=O)Nc2ccc3oc(-c4cccnc4)nc3c2)o1
→ -7%	-7%
[15] Cc1cc(Br)ccc1NC(=O)C1(S(=O)(=O)c2ccc(Cl)cc2)CC1
→ -10%	27%
[16] CCCCN(C)CCNC(=O)c1cc(=O)[nH]c2ccc(S(=O)(=O)N3CCCCCC3)cc12
→ -10%	-10%
[17] Nc1nccnc1C(=O)NCc1ccc(CN2CCCCC2)cc1
→ 0%	0%
[18] COc1cccc(CNC(=O)c2ccc(Cn3c(SCc4ccccc4)nc4cccnc43)cc2)c1
→ 40%[activator]	26%
[19] CC(Sc1n[nH]c(-c2ccccc2F)n1)c1nc(C(C)(C)C)no1 (stereo not given)
→ 0%	19%
[20] COc1ccccc1Nc1nc(-c2ccccc2)c(CC(=O)O)s1
→ 99%[activator]	-6%
[21] CC1(C)N=C(SCc2ccc(F)cc2)c2ccccc2N1
→ -5%	-6%
[22] O=C1CC2(C(=O)Nc3ccccc32)c2sc(C(=O)O)c(-c3ccc(Cl)cc3)c2N1 (stereo not given)
→ -1%	-16%
[23] CCOCCCNC(=O)CSCc1ccc(C)cc1
→ ?	10%
[24] CCn1c(-n2nc(C)cc2C)nc2c1c(=O)n(CCc1ccccc1)c(=O)n2C
→ 0%	11%
[25] COc1ccc(Cl)cc1C(=O)Nc1c(NCc2ccccc2)c2ccccc2oc1=O
→ -3%	-9%
[26] Cc1noc(Cn2c(=O)c3ccccc3n(CC(=O)Nc3ccc(Cl)cc3)c2=O)n1
→ -22%	-6%
[27] COc1cccc(C(=O)N(Cc2cccnc2)c2nc3c(OC)ccc(C)c3s2)c1OC
→ 101%[activator]	154%[activator]
[28] Cc1ncc(CO)c(C=O)c1O
→ -11%	-7%
[29] O=C(Nc1ccc2oc(-c3ccc(Br)cc3)nc2c1)c1cc2ccccc2o1
→ 35%	-8%
[30] COC(=O)c1ccc(NC(=O)Nc2ccc3c(c2)N(C(=O)c2ccc(C)cc2)CC3)cc1
→ ?	?
[31] COc1ccc(CCNC(=O)c2ccc(Cn3c(=O)c4ccccc4n(Cc4cccc(F)c4)c3=O)cc2)cc1OC
→ 10%	22%
[32] COC(=O)C1=C(C)Nc2nc(SC(C)C)[nH]c(=O)c2C1c1cccnc1 (stereo not given)
→ 11%	-3%
[33] CC(C)(C)NC(=O)NC(=O)CN1CCN(S(=O)(=O)c2ccccc2)CC1
→ 4%	-6%
[34] O=C(O)CCC(=O)Nc1sc2c(c1C(=O)Nc1ccccc1)CCCCC2
→ -22%	4%
[35] C[C@H]1O[C@@H](n2cc(F)c(=O)[nH]c2=O)[C@H](O)[C@@H]1O
→ -4%[11.5 µM]	-5%
[36] O=[N+]([O-])/C=C/c1c[nH]c2ccccc12
→ 33%[activator]	7%
[37] Cc1c(NC(=O)Cc2ccccc2)cccc1-c1nc2cccnc2s1
→ 44%[activator]	-5%
[38] CCNC(=O)NC(=O)COC(=O)CCCc1c[nH]c2ccccc12
→ -8%	-12%
[39] CCCCCn1c(NCCCOC)nc2c1c(=O)[nH]c(=O)n2C
→ -8%	5%
[40] Cc1ccc(-c2noc(CNC(=O)c3ccc(C)c(Cl)c3)n2)cc1
→ -10%	-11%
[41] CCOC(=O)c1cnc(Nc2cc(F)ccc2F)c2ccccc12
→ 28%	27%
[42] CC12CCC(O)CC1CC[C@@H]1[C@@H]2CCC2(C)[C@H](C3=CC(=O)OC3)CCC12O (stereo not given in full)
→ ?	?
[43] COc1ccc(-c2nc(C(=O)Nc3ccc(C(C)=O)cc3)nn2-c2cccc(Cl)c2)cc1
→ -4%	31%[activator]
[44] Cc1cccc(-c2nc(CSc3nncn4c3cc3oc(C)cc34)c(C)o2)c1
→ 1%	-14%
[45] Cc1ccc(S(=O)(=O)N2CCN(Cc3cc(=O)oc4cc(O)c(Cl)cc34)CC2)cc1
→ 12%	6%
[46] CCOc1ccc(C2C(C(=O)Nc3ccccc3)=C(C)Nc3nc(-c4ccccc4Cl)nn32)cc1OC (stereo not given)
→ 11%	34%[activator]
[47] CC(C)Cn1nc(C(=O)Nc2ccccc2Cl)c2ccccc2c1=O
→ 0%	21%
[48] CCNC(=O)C(=O)NCc1ccco1
→ 16%	10%
[49] CC(C)Cn1nnnc1SC(C)C(=O)c1ccc(Br)cc1 (stereo not given)
→ 6%	10%
[50] CCCCNC(=O)CSc1nc2ccccc2nc1Cc1ccc(C)cc1
→ 10%	12%
[51] O=C(CSCC(O)c1ccccc1)c1c[nH]c2ccccc12 (stereo not given)
→ 172%[activator]	85%[activator]
[52] COc1ccc2c(COC(=O)c3ccc(N4CCOCC4)nc3)cc(=O)oc2c1
→ 9%	-8%[1.06 µM]
[53] COC(=O)c1ccc(-c2nc(-c3ccc(OC)c(OC)c3)no2)cc1
→ 10%	-5%
[54] Cc1cc(NC(=O)C2CC2)sc1C(=O)NC(C)c1ccccc1 (stereo not given)
→ 2%	39%[activator]
[55] CCOc1cc2[nH]c(=O)n(Cc3ccc(C(=O)N4CCN(c5cccc(Cl)c5)CC4)cc3)c(=O)c2cc1OCC
→ -20%	-20%
[56] CC(C)(C)c1ccc(C2(C)NC(=O)N(Cc3coc(-c4cccs4)n3)C2=O)cc1 (stereo not given)
→ ?	-26%
[57] O=C(NCc1ccccc1)C1CCCN(c2ncnc3nc[nH]c23)C1 (stereo not given)
→ -10%	-8%
[58] CC(/C=C/c1ccccc1)=N/Nc1ccc(F)cc1F
→ -1%	6%
[59] CCC(=O)Nc1ccc(C)cc1-c1nc2ccccc2n(Cc2ccccc2)c1=O
→ -17%	-17%
[60] O=C(NCCc1ccccc1Cl)c1sc2ncccc2c1-n1cccc1
→ 96%[activator]	21%

61	CC1CCN(c2nc3c(S(=O)(=O)c4ccccc4)nnn3c3ccc(Cl)cc23)CC1
  StopGo FLuc = 20% | 2A Renilla = 8%
62	CCC(=O)Nc1ccc(Cl)c(-c2nc3ccc(C)cc3o2)c1
  StopGo FLuc = 103%[activator] | 2A Renilla = 13%
63	CCOC(=O)c1oc2cc(OC(=O)CC)ccc2c(=O)c1-c1nc2ccccc2s1
  StopGo FLuc = 0% | 2A Renilla = 15%
64	Cc1ccsc1/C=N/NC(=O)c1ccccc1
  StopGo FLuc = 243%[activator] | 2A Renilla = 36%[activator]
65	O=C(Nc1nnc2n1CCS2)c1ccccc1
  StopGo FLuc = 129%[activator] | 2A Renilla = 42%[activator]
66	CC(C)(C)C(=O)NCC(=O)N1CCC(c2nc3ccccc3o2)CC1
  StopGo FLuc = -3% | 2A Renilla = -16%
67	Cc1cccc(Cn2c(N3CCN(c4cccc(Cl)c4)CC3)nc3c2c(=O)n(C)c(=O)n3C)c1
  StopGo FLuc = 1% | 2A Renilla = 0%
68	Cc1ccc(CNC(=O)c2ccc(Sc3ccc(C)cc3)c(N)c2)cc1
  StopGo FLuc = -10% | 2A Renilla = -1%
69	COc1ccc(-c2nc(C#N)c(NCc3ccccc3Cl)o2)cc1
  StopGo FLuc = 44%[activator] | 2A Renilla = 29%
70	O=Cc1c[nH]c2cc(Br)ccc12
  StopGo FLuc = -2% | 2A Renilla = 2%

71	CCOC(=O)c1cc2c(=O)n3ccccc3nc2n(CC2CCCO2)c1=NC(=O)c1cc(C)cc(C)c1 (stereo not given)
  StopGo FLuc = ? | 2A Renilla = ?
72	COc1cccc(NC(=O)c2nn(-c3cccc(OC)c3)c(=O)c3ccccc23)c1
  StopGo FLuc = -3% | 2A Renilla = 0%
73	Cc1cc(C)c(NC(=O)c2cc3cc(Br)ccc3oc2=O)c(C)c1
  StopGo FLuc = 0% | 2A Renilla = 1%
74	COc1ccc2oc(=O)c(-c3nc4ccccc4s3)cc2c1
  StopGo FLuc = 170%[activator] | 2A Renilla = 58%
75	O=C(/C=C/N1CCOCC1)C(F)(F)F
  StopGo FLuc = -2% | 2A Renilla = 10%
76	CCOc1ccc(NC(=O)CSc2nc3ccsc3c(=O)n2CCCCCC(=O)O)cc1
  StopGo FLuc = -16% | 2A Renilla = -7%
77	COc1ccc(OC)c(-c2cc(C(=O)N(C)C)no2)c1
  StopGo FLuc = 44%[activator] | 2A Renilla = 22%
78	CC(c1ccc(F)cc1)N1CCN(c2oc(C3CC3)nc2C#N)CC1 (stereo not given)
  StopGo FLuc = -15% | 2A Renilla = -6%
79	O=C(Nc1cc(Cl)ccc1Cl)c1cc2nc(-c3ccc4c(c3)OCO4)cc(C(F)(F)F)n2n1
  StopGo FLuc = 0% | 2A Renilla = 2%
80	COc1ccc(CNc2oc(COc3ccc(C)cc3)nc2C#N)cc1
  StopGo FLuc = 10% | 2A Renilla = -10%

Single values from above.
2A Renilla with cpd 78 → -6%
2A Renilla with cpd 73 → 1%
StopGo FLuc with cpd 79 → 0%

Going on with the list.
81	CCC(=O)N1CCc2cc(S(=O)(=O)NCCC(=O)NCc3ccccc3Cl)ccc21
  StopGo FLuc = -2% | 2A Renilla = 51%[activator]
82	Cc1ccc[n+]([O-])c1C
  StopGo FLuc = 10% | 2A Renilla = 3%
83	Cc1ccc(NC(=O)Cn2c(=O)n(Cc3ccccc3)c(=O)c3c2c2cc(C)ccc2n3C)cc1
  StopGo FLuc = -15% | 2A Renilla = -10%
84	CCOc1ccccc1Oc1c(C)oc2cc(O)ccc2c1=O
  StopGo FLuc = 9% | 2A Renilla = 14%
85	COc1ccc(-c2nonc2NC(=O)c2oc3ccc(F)cc3c2C)cc1
  StopGo FLuc = 39%[activator] | 2A Renilla = 56%[activator]
86	O=S(=O)(NCC1CN(Cc2ccccc2)CCO1)c1cccc(F)c1 (stereo not given)
  StopGo FLuc = 16% | 2A Renilla = 16%
87	Cc1cc(C(=O)NCCc2ccc(Cl)cc2)c2c(C)nn(-c3cccc(F)c3)c2n1
  StopGo FLuc = -4% | 2A Renilla = 4%
88	COC(=O)CNC(=O)COC(=O)c1ccc2ccccc2n1
  StopGo FLuc = 4% | 2A Renilla = -7%

Reprinted, entries 81–84
81	CCC(=O)N1CCc2cc(S(=O)(=O)NCCC(=O)NCc3ccccc3Cl)ccc21
  StopGo FLuc = -2% | 2A Renilla = 51%[activator]
82	Cc1ccc[n+]([O-])c1C
  StopGo FLuc = 10% | 2A Renilla = 3%
83	Cc1ccc(NC(=O)Cn2c(=O)n(Cc3ccccc3)c(=O)c3c2c2cc(C)ccc2n3C)cc1
  StopGo FLuc = -15% | 2A Renilla = -10%
84	CCOc1ccccc1Oc1c(C)oc2cc(O)ccc2c1=O
  StopGo FLuc = 9% | 2A Renilla = 14%

Ordered by molecular weight (smallest number first): some entries from above.
88	COC(=O)CNC(=O)COC(=O)c1ccc2ccccc2n1
  StopGo FLuc = 4% | 2A Renilla = -7%
84	CCOc1ccccc1Oc1c(C)oc2cc(O)ccc2c1=O
  StopGo FLuc = 9% | 2A Renilla = 14%
86	O=S(=O)(NCC1CN(Cc2ccccc2)CCO1)c1cccc(F)c1 (stereo not given)
  StopGo FLuc = 16% | 2A Renilla = 16%
81	CCC(=O)N1CCc2cc(S(=O)(=O)NCCC(=O)NCc3ccccc3Cl)ccc21
  StopGo FLuc = -2% | 2A Renilla = 51%[activator]

Complete entries, looked up by structure. Values in the order: StopGo FLuc | 2A Renilla
COC(=O)CNC(=O)COC(=O)c1ccc2ccccc2n1 across the screens: 4% | -7%
CCC(=O)N1CCc2cc(S(=O)(=O)NCCC(=O)NCc3ccccc3Cl)ccc21 across the screens: -2% | 51%[activator]
Cc1cc(C(=O)NCCc2ccc(Cl)cc2)c2c(C)nn(-c3cccc(F)c3)c2n1 across the screens: -4% | 4%
O=S(=O)(NCC1CN(Cc2ccccc2)CCO1)c1cccc(F)c1 (stereo not given) across the screens: 16% | 16%
CCOc1ccccc1Oc1c(C)oc2cc(O)ccc2c1=O across the screens: 9% | 14%

From PubChem
